PABP FP inh – blocks human PABP binding to poly(A) RNA; P11940; fluorescence polarization; inhibition, % at 35 µM; 290,000 tested, 1% active;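 active = 50% or more with normal probe brightness, or confirmed in later tests; inconclusive = above 50% with abnormal brightness, or retests that disagree; inactive = below 50% or failed in later tests; about a fifth of its hits are not listed in these tables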;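 note: calls also rest on retests at 20 µM and on dose response follow-up; controls were probe without protein and protein plus probe with vehicle; some compounds called inactive have numbers as strong as hits; many hits fall short of the cut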
Target sequence (P11940 whole entry, looked up): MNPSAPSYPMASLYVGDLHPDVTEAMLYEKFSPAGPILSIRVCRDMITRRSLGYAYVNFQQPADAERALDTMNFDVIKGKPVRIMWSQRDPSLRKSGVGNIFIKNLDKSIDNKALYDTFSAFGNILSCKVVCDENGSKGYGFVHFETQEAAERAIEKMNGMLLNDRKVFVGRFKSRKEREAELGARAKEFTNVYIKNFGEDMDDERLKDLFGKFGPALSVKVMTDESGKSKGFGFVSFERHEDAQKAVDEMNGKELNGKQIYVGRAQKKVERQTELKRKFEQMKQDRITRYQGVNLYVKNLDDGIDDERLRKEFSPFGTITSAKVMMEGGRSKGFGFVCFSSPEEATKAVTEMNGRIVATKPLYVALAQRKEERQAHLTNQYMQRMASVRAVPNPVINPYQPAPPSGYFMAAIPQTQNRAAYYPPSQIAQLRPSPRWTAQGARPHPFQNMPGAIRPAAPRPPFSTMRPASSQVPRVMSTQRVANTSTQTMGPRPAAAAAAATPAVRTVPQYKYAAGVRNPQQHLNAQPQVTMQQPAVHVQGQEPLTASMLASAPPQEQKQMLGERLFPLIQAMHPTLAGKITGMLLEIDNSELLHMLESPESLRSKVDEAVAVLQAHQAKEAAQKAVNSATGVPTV
MT1-MMP act inh – MT1-MMP (human) activation inhibition. HT1080 RFP-PRO-GFP cells, GFP/RFP ratio fluorescence, overnight; percent of plate control window, DMSO zero. GFP/RFP ratio change, % at 20 µM. 360,000 tested, 0.061% active;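 active = GFP/RFP ratio change of at least 30% with cell ATP level not reduced by more than half and red fluorescence within 50% of control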; note: strong numbers were not always called active
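Assay system: HT1080 RFP-PRO-GFP cells | Dosing: 20 µM single dose, 1% DMSO | Incubation: Cells overnight before dosing, compound overnight, 37 °C, 5% CO2 | Evaluation: GFP/RFP fluorescence ratio | Control set: DMSO-only wells and HT1080 RFP-L50D-GFP cell wells as references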
HIV Env fusion – HIV envelope-mediated fusion inhibition. HeLa-JRFL Env/CEM21 cell fusion, luciferase. inhibition, % at 12.3 µM. 360,000 tested, 1.1% active;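 active = mean replicate inhibition score of at least 50 and every replicate individually at or above 50; inconclusive = only one of the two criteria met; inactive = mean below 50 and not all replicates reaching 50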;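 note: 0% = plate neutral controls and 100% = maraviroc near 300 nM; one replicate is shown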
UUG fidelity – yeast start codon fidelity modulation. S. cerevisiae UUG-firefly luciferase reporter, luminescence/redox ratio. activity score, % at 18.7 µM. 350,000 tested, 0.13% active;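 active = replicate mean at a twofold rise or more, about +100% in these data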;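 note: firefly luciferase made from a UUG start codon reports start codon fidelity; reporter light over untreated wells divided by growth signal over untreated wells; some hits fall short of that in this replicate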
eIF4H FP inh – inhibitors of RNA binding by human eIF4H | inhibition, % at 35 µM | 290,000 tested, 0.94% active | Q15056 | eIF4H fluorescence polarization binding assay;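 active = 50% or more with normal probe brightness, or confirmed in later tests; inconclusive = above 50% with abnormal brightness, or retests that disagree; inactive = below 50% or failed in later tests; about a fifth of its hits are not listed in these tables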;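 note: calls also rest on retests at 20 µM and on dose response follow-up; 0% = protein and probe with vehicle and 100% = probe without protein; strong numbers were not always called active; many hits fall short of the cut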
CSC inhib – cancer stem cell inhibition. cancer stem cell-like cells viability, luminescence. inhibition, % at 7.5 µM. 300,000 tested, 1.1% active. AID 2717;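 active = mean at 75% or more and at least half the replicates too; inconclusive = mean and replicates disagree; tested in HMLE shEcad cells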;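 note: 0% = median of negative and 100% = median of positive control wells; the first replicate is given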
Rce1 inhib – inhibitors of yeast Ras-converting enzyme; yeast membranes, quenched prenylated peptide cleavage fluorescence; AID 2563; Q03530; 290,000 tested, 0.27% active; calls only;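 active = fall in fluorescence gain of 50% or more versus controls, with final raw signal at or below 3038400; inconclusive = same 50% fall but final raw signal above 3038400; inactive = fall in fluorescence gain under 50%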;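 note: plate controls were neutral control wells for no effect and wells lacking membranes for full effect; tested at 10 µM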
Target sequence (Q03530 whole entry, looked up): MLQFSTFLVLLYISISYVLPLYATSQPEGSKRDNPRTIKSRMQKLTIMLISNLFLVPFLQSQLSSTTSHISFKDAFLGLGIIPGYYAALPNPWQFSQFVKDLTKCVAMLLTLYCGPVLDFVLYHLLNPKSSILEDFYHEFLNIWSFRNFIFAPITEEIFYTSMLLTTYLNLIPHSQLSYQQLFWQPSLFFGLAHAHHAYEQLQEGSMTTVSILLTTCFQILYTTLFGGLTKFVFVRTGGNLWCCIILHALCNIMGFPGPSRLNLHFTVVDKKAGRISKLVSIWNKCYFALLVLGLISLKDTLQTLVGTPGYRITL
MT1-MMP act inh RFP – also measured in MT1-MMP act inh; calls as there; RFP signal change, %; measured here: RFP expression control read;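 0 = vehicle wells; hits needed this value within 50% of zero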
Numbers without * were called inactive; i = inactive; ? = inconclusive; nt = no result given; + = active, no number.

Each structure is followed by: PABP FP inh | MT1-MMP act inh | MT1-MMP act inh RFP | HIV Env fusion | UUG fidelity | eIF4H FP inh | CSC inhib | Rce1 inhib
O=C(N/N=C/c1ccoc1)c1ccccc1O
 : 0 | -6 | -7 | 1 | 4 | 13 | 6 | i
CCc1nnc(NS(=O)(=O)c2ccc(N=CC3=C(O)CC(C)(C)CC3=O)cc2)s1
 : -5 | 1 | 3 | 2 | -18 | -4 | 3 | i
CC(C)(C)OC(=O)N1CCCN(C(=O)Nc2cccc(Cl)c2)CC1
 : -3 | 1 | 0 | 7 | -2 | -3 | -14 | i
C=C(C)c1nc2cc(OC)c(OC)cc2c(=O)o1
 : 4 | 3 | 10 | nt | 4 | -11 | -13 | i
COc1ccc(N(CC(C)C)S(=O)(=O)c2nnc(NC(=O)c3ccco3)s2)cc1
 : nt | 6 | -1 | 11 | 5 | nt | 12 | i
Cc1ccc(C(=O)Nc2ccnc(-c3ccncc3)n2)cc1
 : 0 | -1 | -3 | 6 | nt | 1 | -16 | i
CCCC1(c2ccccc2)NC(=O)N(CC(=O)Nc2cc(C)ccc2OC)C1=O (stereo unspecified)
 : -3 | -2 | 0 | -4 | 2 | -8 | -19 | i
CC(C)CC1C(=O)N(Cc2cn(CC3CCCCC3)nn2)CCS(=O)(=O)N1Cc1ccc(-c2ccc(Cl)cc2)cc1 (stereo unspecified)
 : nt | -3 | -4 | -14 | -25 | nt | nt | nt
CC(=O)NC(CCS(C)(=O)=O)C(=O)Nc1cccc2ccccc12 (stereo unspecified)
 : -9 | 0 | 3 | -15 | -9 | -11 | -14 | i
COc1ccc(C=CC(=O)c2c(OC)cc(OC)c(OC)c2O)cc1
 : nt | 10 | -8 | 7 | -18 | nt | nt | nt
Cc1cccc(N2CC(C(=O)Nc3nccs3)CC2=O)c1C (stereo unspecified)
 : -11 | -1 | 0 | 0 | -4 | -15 | -3 | i
O=c1nc2ccccc2c2n1CC(CN1CCN(c3cccc(Cl)c3)CC1)N2 (stereo unspecified)
 : -9 | 5 | 2 | -18 | -16 | 2 | nt | i
CCCCCOc1ccccc1C(=O)NCCCC(=O)O
 : -4 | 1 | -1 | nt | -4 | 1 | 0 | i
CC(C)Nc1nc(NC(C)C)nc(Oc2ccc(/C=N/O)cc2)n1
 : nt | 4 | 2 | -12 | -21 | nt | -12 | i
CC(C)(C)OC(=O)C[C@@H]1C/C=C\C[C@@H](CC(=O)N(CCO)Cc2ccccc2)C(=O)N[C@H](Cc2c[nH]c3ccccc23)COC1=O
 : nt | 0 | 1 | -13 | -9 | nt | nt | nt
COc1cc(Cl)ccc1OCc1cc(C(=O)N2CCN(C3CCCCC3)CC2)no1
 : nt | 1 | 2 | 6 | -12 | nt | nt | nt
Cc1ccc(-c2nnc(-c3ccccc3Br)o2)cc1
 : -2 | 1 | 1 | -164 | -59 | -1 | 2 | i
O=C(CC1CCCCC1)Nc1ncn[nH]1
 : 2 | 0 | 5 | nt | -26 | 1 | -4 | i
COC(=O)C1=C(C)NC(C)=C(C(=O)OCCN(C)Cc2ccccc2)C1c1cccc([N+](=O)[O-])c1 (stereo unspecified)
 : 8 | -3 | -6 | 4 | -4 | -9 | 22 | i
CCCCC(=O)N(c1ccc(C)c(C)c1)C1C=CS(=O)(=O)C1 (stereo unspecified)
 : 2 | -6 | -5 | -15 | -13 | -2 | 6 | i

More entries:
Each structure is followed by: PABP FP inh | MT1-MMP act inh | MT1-MMP act inh RFP | HIV Env fusion | UUG fidelity | eIF4H FP inh | CSC inhib | Rce1 inhib
CC(C)CC(NC(=O)/C(=C\c1ccco1)NC(=O)c1ccco1)C(=O)O (stereo unspecified)
 : 14 | -7 | 1 | 5 | -3 | 21 | -10 | i
Cn1c(=O)[nH]c(=O)c2c1nc(N1CCCCCC1)n2CCSc1nc2ccccc2[nH]1
 : 3 | 3 | 2 | nt | -23 | -10 | -9 | i
CC(=O)N1CCCc2cc(S(=O)(=O)N3CCCC(C(=O)NCc4ccc(Cl)cc4)C3)ccc21 (stereo unspecified)
 : 11 | -6 | -26 | 9 | -10 | 7 | -5 | i
O=C(COC(=O)Cc1cccs1)NCC(=O)Nc1ccc(F)cc1
 : nt | -2 | 3 | -3 | -16 | nt | 11 | nt
O=C(CCc1nnc(COc2ccccc2)o1)NCc1ccccc1
 : 7 | 1 | 1 | 12 | nt | -6 | 0 | i
COc1ccc(NC(=O)C2C3C=CC(C3)C2C(=O)NCc2ccco2)c(OC)c1 (stereo unspecified)
 : -2 | -2 | 0 | nt | -4 | -5 | -14 | i
Cc1ccc(Oc2ncccc2NC(=O)CC2(CC(=O)O)CCCC2)c2c1CCC2
 : 3 | 1 | 4 | 5 | nt | -2 | -4 | i
O=C(Nc1nn(Cc2ccc(Cl)cc2)cc1Br)c1ccc(COc2ccccc2Cl)o1
 : -8 | -1 | -19 | nt | 7 | -6 | 57 | i
Cc1ccc(NC(=O)N(C2CCCCC2)C(C)c2cccnc2)cc1C (stereo unspecified)
 : 2 | 3 | 6 | -6 | -29 | -5 | 9 | i
CCCc1ccc(OCC(=O)NNC(=S)NC(=O)c2ccco2)cc1
 : 7 | 7 | 4 | nt | nt | 9 | 42 | i
COCc1cc(C)nc(N/N=C/c2ccc(-c3ccc(C(=O)O)c(Cl)c3)o2)c1C#N
 : 35 | nt | nt | nt | nt | 10 | -9 | i
COc1ccc(/C=N/Nc2nnc(Cc3ccc(OC)c(OC)c3)c(=O)[nH]2)cc1
 : 4 | 1 | -6 | 24 | nt | 15 | -6 | i
COc1ccc(/C=N/N=C(\N)c2nonc2N)cc1
 : 3 | -2 | -2 | -58 | nt | -8 | nt | i
CCN1C(C)=C(C)S/C1=C1\SC(=S)N(NC(C)=O)C1=O
 : -6 | -1 | 7 | -1 | -1 | -6 | 5 | i
COc1ccc(/C=C(/C#N)C(=O)Nc2cc(C)ccc2C)cc1C(=O)O
 : 7 | -3 | -3 | nt | -3 | 9 | -23 | i
CCCN(CCC)CC(O)COc1ccc2c(c1)OCO2 (stereo unspecified)
 : 4 | 0 | 3 | 2 | nt | 8 | 6 | i
CCC(c1nnnn1C1CCCCC1)N1CCN(C(=O)c2ccco2)CC1 (stereo unspecified)
 : -2 | 2 | 2 | -7 | -5 | -2 | 7 | i
CS(=O)(=O)N(CC(=O)N1CCOCC1)c1ccc(Cl)cc1
 : -8 | 0 | 1 | 14 | -22 | 1 | -11 | i
O=C(CCCCCNC(=O)N1CCn2c1nc1ccccc12)N[C@@H](Cc1ccccc1)C(=O)O
 : 20 | -1 | 3 | nt | -28 | 1 | -7 | i
CC(=O)N(CC1CCCO1)C1(C(=O)NC2CCCC2)CCCCC1 (stereo unspecified)
 : -6 | -4 | 0 | nt | 14 | -10 | -9 | i

Further entries follow:
Each structure is followed by: PABP FP inh | MT1-MMP act inh | MT1-MMP act inh RFP | HIV Env fusion | UUG fidelity | eIF4H FP inh | CSC inhib | Rce1 inhib
COc1cccc(NC(=O)CN(C)C(=O)c2ccc(N3CCCCC3)c([N+](=O)[O-])c2)c1
 : nt | 4 | -3 | nt | -5 | nt | 7 | nt
Cc1ccc(C2(C)NC(=O)N(CC(=O)N3CCN(C(=O)c4cccs4)CC3)C2=O)cc1 (stereo unspecified)
 : nt | 1 | 1 | -12 | 21 | nt | nt | nt
COc1cc(NC(=O)CN(C)S(=O)(=O)c2ccc3c(c2)CC(C)N3C(C)=O)cc(OC)c1 (stereo unspecified)
 : 4 | 3 | -4 | 9 | 6 | -12 | nt | i
Cc1ccc(C(=O)CC2SC(N)=NC2=O)cc1 (stereo unspecified)
 : -4 | 3 | -3 | nt | -2 | -2 | -1 | i
CC(=O)Nc1c(C(=O)N2CCOCC2)cnn1-c1ccc(C)c(C)c1
 : -6 | 0 | 5 | -37 | -5 | -8 | -14 | i
CCC(=O)N(Cc1cc(=O)[nH]c2ccccc12)c1ccc(C)cc1C
 : -2 | -2 | -2 | -12 | 0 | 2 | -5 | i
CCOC(=O)CSc1nc2cc(C(=O)NCC3CCCO3)ccc2c(=O)n1Cc1ccco1 (stereo unspecified)
 : 2 | -3 | 0 | -1 | -14 | -5 | -8 | i
CCOc1cc(C(=O)Nc2cccc3ncccc23)cc(OCC)c1OCC
 : 6 | 9 | 4 | nt | 9 | -10 | nt | i
CSc1ccc(Cc2ccc(Cl)cc2Cl)nn1
 : -13 | 2 | -7 | 11 | nt | -4 | -17 | i
COc1ccccc1Cn1c(=S)[nH]c2cc(C(=O)NCC(OC)OC)ccc2c1=O
 : 3 | 2 | -1 | 1 | -17 | -11 | -5 | i
COC(=O)c1ccccc1OCCOc1ccccc1C(=O)OC
 : 6 | -1 | -1 | -45 | -7 | 10 | -8 | i
C=CCNC(=S)NNC(=O)CCC(O)COCCC(C)C (stereo unspecified)
 : ? | 6 | 2 | 8 | nt | 4 | -12 | i
CCCCN1CCC(=O)C(C(=O)OCC)=C1C(=O)OCC
 : nt | 1 | 3 | 21 | -2 | nt | nt | nt
COc1ccc(N2CCN(CCNC(=O)CCS(=O)(=O)c3cccc4nsnc34)CC2)cc1
 : -6 | nt | nt | nt | nt | 6 | -3 | i
CCCCc1nc(Cl)c(C#N)c2c1CCCC2
 : 10 | -2 | -3 | -5 | nt | -1 | -10 | i
CC(NC(=O)COC(=O)c1c[nH]c2ccccc12)c1ccccc1 (stereo unspecified)
 : nt | -8 | -1 | -2 | nt | nt | 8 | nt
NC(=O)c1cc(NC(=O)CCCc2nc3ccccc3s2)cc(C(N)=O)c1
 : -5 | -4 | -1 | -20 | 3 | -2 | -4 | i
Cc1cccc(OC(=O)c2sc(Cl)nc2C)c1
 : 5 | 1 | -2 | nt | -10 | -11 | 1 | i
O=C1CCCN1CCC(=O)N1CCCC(N2CCN(c3ccccc3F)CC2)C1 (stereo unspecified)
 : -11 | 3 | 6 | 7 | -17 | -5 | -1 | nt
COc1ccc(NC(=O)c2cc3c(=O)n(C)c4ccccc4c3s2)cc1OC
 : -11 | 11 | 2 | -18 | nt | 8 | 8 | i

(continued)
Each structure is followed by: PABP FP inh | MT1-MMP act inh | MT1-MMP act inh RFP | HIV Env fusion | UUG fidelity | eIF4H FP inh | CSC inhib | Rce1 inhib
CN(C(=O)c1ccccc1Br)C1CCS(=O)(=O)C1 (stereo unspecified)
 : nt | -2 | 0 | -8 | nt | nt | -7 | i
CCC(=O)N1CCN(c2ccc(NC(=O)c3cc4ccccc4o3)cc2Cl)CC1
 : -14 | -15 | -23 | nt | -8 | -4 | 34 | +
COc1ccc2nc(Nc3nc4ccc(NC(C)=O)cc4s3)sc2c1
 : -4 | -1 | -6 | 1 | nt | 4 | 68 | i
Cc1cc(C)c2c(c1)c1nnc(SCCN3CCOCC3)nc1n2C
 : 9 | 1 | -3 | -14 | -13 | -10 | nt | i
CCOc1ccccc1N1CCN(C(=O)c2ccccc2OCc2c(C)noc2C)CC1
 : nt | 3 | 3 | -46 | 6 | nt | -11 | nt
COc1cccc2cc(-c3nnc(SCC(=O)Nc4ccc(NC(C)=O)cc4)n3C)oc12
 : -6 | 4 | 2 | 8 | -15 | -10 | nt | i
CC(=O)NCCC(=O)Nc1cc(S(=O)(=O)N2CCCCC2)ccc1N1CCN(C)CC1
 : nt | 1 | 0 | -10 | -15 | nt | -6 | i
O=C(NCCN1CCOCC1)c1cccn2c(=O)c3c4c(sc3nc12)CCCC4
 : 2 | nt | nt | nt | nt | 2 | 0 | i
CSc1ccc(C(O)c2ncc(-c3ccc(F)cc3)[nH]2)cc1 (stereo unspecified)
 : nt | 4 | -1 | 13 | -20 | nt | nt | nt
OC(c1ccc(Cl)cc1)c1nccc2ccccc12 (stereo unspecified)
 : 2 | 3 | 3 | 15 | -8 | -1 | -8 | i
CC(C)c1nnc(NC(=O)CSc2nc3ccccc3[nH]2)s1
 : -6 | -2 | 1 | -19 | -14 | -2 | -6 | i
